Assay outcomes deposited in PubChem BioAssay by National Center for Advancing Translational Sciences (NCATS).
TRPV1 potentiator – HTS Assay for Compounds that Act as Potentiators of the Vanilloid Receptor 1; TRPV1-expressing cells, Fluo-8 calcium influx, capsaicin EC20 potentiation; host cell line not named in the record; control for the full effect not named in the record; AID 540277, 2011; potentiation, % at 8.33 µM; 0.02% of 320,000 active; active means potentiation above 80%; inconclusive means 30% to 80%; inactive means below 30%; also: 0% is about no effect
Target sequence (Q8NER1 whole entry, looked up): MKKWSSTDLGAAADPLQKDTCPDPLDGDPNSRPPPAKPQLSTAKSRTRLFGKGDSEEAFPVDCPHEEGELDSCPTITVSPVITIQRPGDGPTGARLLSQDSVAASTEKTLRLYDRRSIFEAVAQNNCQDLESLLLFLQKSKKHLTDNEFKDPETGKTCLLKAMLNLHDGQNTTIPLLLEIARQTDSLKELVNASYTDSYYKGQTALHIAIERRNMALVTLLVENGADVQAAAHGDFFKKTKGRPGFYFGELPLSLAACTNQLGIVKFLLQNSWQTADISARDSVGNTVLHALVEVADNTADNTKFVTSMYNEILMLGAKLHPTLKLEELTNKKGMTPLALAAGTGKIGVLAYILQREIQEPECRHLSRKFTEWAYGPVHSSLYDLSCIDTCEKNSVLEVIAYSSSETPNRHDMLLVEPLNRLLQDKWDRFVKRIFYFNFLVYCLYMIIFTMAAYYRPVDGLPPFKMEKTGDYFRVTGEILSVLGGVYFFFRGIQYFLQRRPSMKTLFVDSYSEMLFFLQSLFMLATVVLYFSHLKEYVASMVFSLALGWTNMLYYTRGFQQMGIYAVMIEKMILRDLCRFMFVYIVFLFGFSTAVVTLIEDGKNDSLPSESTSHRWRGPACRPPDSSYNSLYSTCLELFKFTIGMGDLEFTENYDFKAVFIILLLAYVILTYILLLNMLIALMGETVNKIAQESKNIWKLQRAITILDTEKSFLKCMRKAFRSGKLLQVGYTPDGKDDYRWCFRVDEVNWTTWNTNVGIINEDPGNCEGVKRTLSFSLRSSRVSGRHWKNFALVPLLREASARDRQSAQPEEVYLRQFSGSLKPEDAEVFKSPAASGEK
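Fluo-8 calcium influx in TRPV1-expressing cells, kinetic read (ex 480/em 520 nm). Compound added and read 3 min for agonist activity, followed by capsaicin at EC20 final and 2 min further read for enhancement.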
D2 potentiator – Beta-Arrestin HTS for Positive Allosteric Modulators of the Human D2 Dopamine Receptor: Potentiators. potentiation, % (no concentration beside the values). AID 624464, 2012. 0.23% of 360,000 active. D(2) dopamine receptor (Homo sapiens), P14416. DiscoveRx D2 beta-arrestin cells, luminescence, 90 min; 100% = 57 uM dopamine signal; active = potentiation of 50% or more; inconclusive = 30% to 50%; inactive = 30% or less;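 also: compound concentration not given in the record; tested on top of an EC20 dose of dopamine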
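PathHunter D2 cells, attached overnight at 37 deg C, received compound in DMSO plus dopamine at EC20 (50 nM final) for 90 min at 37 deg C. Beta-arrestin recruitment was read as luminescence after 1 h with detection reagent at ambient temperature.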
ClpP mod – qHTS Assay for Activators of ClpP. ATP-dependent Clp protease proteolytic subunit (Bacillus subtilis (strain 168)), P80244. purified B. subtilis ClpP, FRET peptide cleavage, 20 min. Potency, µM (series often up to 57.5 µM), for the others: at the highest dose activity change, negative = active. 1.9% of 340,000 active; active = well fitted falling curve with a large enough effect; inconclusive = small, poorly fitted or top-dose-only effect; inactive = no such curve, though single readings can be large or run the other way; also: potency is read from the fitted curve at half-maximal effect; the source files actives as falling curves though it sought activators and does not explain the sign; nearly all actives have a fitted effect of over 65% in size; many hits overshoot -100%
Target sequence (P80244 whole entry, looked up): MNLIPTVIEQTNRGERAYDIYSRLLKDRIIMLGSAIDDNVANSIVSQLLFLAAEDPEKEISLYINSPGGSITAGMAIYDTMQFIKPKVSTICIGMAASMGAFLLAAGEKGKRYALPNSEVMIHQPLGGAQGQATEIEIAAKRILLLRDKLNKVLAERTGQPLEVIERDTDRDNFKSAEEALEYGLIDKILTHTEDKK
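Buffer: 100 mM Tris/HCl pH8, 100 mM KCl, 0.05% low protease BSA, 2.5% glycerol, 0.01% Tween-20. ClpP 10 microg/mL final; 20 min RT; delta FRET normalized to ADEP and DMSO controls.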
Sfp inh – qHTS Assay for Inhibitors of Bacillus subtilis Sfp phosphopantetheinyl transferase (PPTase) | 4'-phosphopantetheinyl transferase ffp (Bacillus subtilis), Q9F4F7 | Biochemical Sfp PPTase activity, qHTS | Potency, µM, for the others: max response, negative = inhibition, actives largely listed as inhibitors | 3.5% of 310,000 active | AID 1490, 2009; active = well fitted inhibition curve with a large enough effect; inconclusive = small, poorly fitted or top-dose-only effect, or another doubt; inactive = no such curve, though single readings can be large or run the other way;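 also: the enzyme is Sfp with the accession as filed and its product quenches rhodamine fluorescence; potency is read from the fitted curve at half-maximal effect; 0% = enzyme reaction without inhibitor and -100% = no enzyme wells; top concentration of the series not given in the record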
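After 15 min at room temperature with compound, 15 nM Sfp received 5 uM rhodamine-CoA plus 12.5 uM BHQ-2-ybbR (50 mM Hepes pH 7.6, 10 mM MgCl2). Rate came from the fluorescence difference over 30 min, ex 525/em 598 nm.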
Menin MLL FP FL – qHTS Assay for Inhibitors Targeting the Menin-MLL Interaction in MLL Related Leukemias: Competition With Fluorescein Labeled MLL-derived Peptide. Fluorescence polarization, fluorescein-MLL peptide displacement from menin. FP activity change, % at 61.4 µM. 290,000 tested, under 10 active. AID 1766, 2009; inconclusive = falling polarisation curve, or a change in total fluorescence; inactive = total fluorescence flat and polarisation flat or rising; no compound was filed as active; the % refers to the polarisation; negative = inhibition;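 also: % of control where 0% means no effect; inhibitors lower the polarisation; unlabelled MLL peptide was the positive control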
gsp agonist – qHTS for Agonist of gsp, the Etiologic Mutation Responsible for Fibrous Dysplasia/McCune-Albright Syndrome: qHTS | gsp mutant cells, cAMP HTRF, 30 min; control for the full effect not named in the record | 0.13% of 340,000 active | Potency, µM (titrated, usually from 76.9 µM), inactives show at the highest dose activation (cAMP increase), most hits filed as activators; active = well fitted activation curve with a large enough effect; inconclusive = small, poorly fitted or top-dose-only effect, or another doubt; inactive = no such curve, though single readings can be large or run the other way; cell line not stated here;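 also: phosphodiesterase inhibitor Ro 20-1724 added with compounds to block cAMP breakdown; potency is read from the fitted curve at half-maximal effect; nearly all actives have a fitted effect of over 60% in size; about a fifth of the inactives were tested at one dose only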
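Cells stably selected in G418 were plated at 2000/well, grown 16-24 hr, then given compounds in DMSO with the PDE inhibitor […] (300 uM solution added) for 30 min at 37C; cAMP was read by HTRF.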
gsp antagonist – qHTS for Antagonists of gsp, the Etiologic Mutation Responsible for Fibrous Dysplasia/McCune-Albright Syndrome: qHTS; gsp-mutant cells, cAMP HTRF, 30 min; control for the full effect not named in the record; Potency, µM (top dose mostly 76.9 µM), without a hit: at the highest dose activity change, negative = inhibition, actives largely listed as inhibitors; 0.4% of 340,000 active; active = falling curve of any shape with a large fitted effect; inconclusive = falling curve, mostly with a smaller effect; inactive = flat or rising curve; cell line not stated here;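 also: intracellular cAMP measured with PDE inhibitor Ro 20-1724 present during compound exposure; potency is read from the fitted curve at half-maximal effect; % is scaled to controls: 0 for no effect and ±100 for the full control effect; nearly all actives have a fitted effect of over 65% in size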
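HTRF cAMP read-out (cAMP-d2 plus anti-cAMP antibody-K in lysis buffer, 30 min RT). Before lysis, cells are exposed to compounds with […] for 30 min at 37C in DPBS containing Ca/Mg, BSA and Tween 20.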
* marks the source's active call; other numbers are inactive results; & = joins results of further samples; [ ] = dose if it differs, or a comment.

What do the screens show for `O=c1cc(-c2ccccc2)[nH]n1-c1nc2ccccc2s1`?
TRPV1 potentiator: -22; D2 potentiator: -5; ClpP mod: -1.9%; Sfp inh: 7%; Menin MLL FP FL: 5.7; gsp agonist: -31%[inhibitor]; gsp antagonist: inconclusive

Results for Cc1nn(C)c(C(=O)NC(=S)Nc2ccccc2Br)c1Cl ?
TRPV1 potentiator: 11; D2 potentiator: -8; ClpP mod: 0.6%; Sfp inh: inconclusive; gsp agonist: 13%; gsp antagonist: -15%

How did CCOc1ccccc1N1CCN(C(=O)c2ccncc2)CC1 do in these assays?
TRPV1 potentiator: 9; D2 potentiator: -20; ClpP mod: 0.7%; Sfp inh: 13%; Menin MLL FP FL: -0.4; gsp agonist: 7%; gsp antagonist: 2%

What do the screens show for `O=C(c1ccco1)N1CCC(c2nc3c(nnn3Cc3ccc(F)cc3)c(=O)[nH]2)CC1`?
TRPV1 potentiator: -8; D2 potentiator: 9; Sfp inh: -1%; Menin MLL FP FL: -5.3; gsp agonist: 18%; gsp antagonist: 3%

What do the screens show for `O=C(Nc1c(Cl)cccc1Cl)C1CCN(C(=O)c2cccs2)CC1`?
TRPV1 potentiator: -6; D2 potentiator: -2; Sfp inh: 12%; Menin MLL FP FL: -0.5; gsp agonist: -9%[15.4 µM]; gsp antagonist: -4%

What do the screens show for `O=c1c2ccccc2sc2c(CO)ccc(NCCN3CCCCC3)c12`?
D2 potentiator: -29; ClpP mod: -0.6%; gsp agonist: 11%; gsp antagonist: -8%

Results for CCc1ccc(C(=O)Nc2ccc(OC)c(S(=O)(=O)N3CCCCC3)c2)cc1 ?
TRPV1 potentiator: -11; D2 potentiator: -9; ClpP mod: -2.5%; gsp agonist: -14%; gsp antagonist: -30%

How did Cc1ccc(OCCCc2c(C)n[nH]c2C)cc1 do in these assays?
TRPV1 potentiator: 2; D2 potentiator: -4; Sfp inh: -8%; Menin MLL FP FL: 3.7; gsp agonist: 58%; gsp antagonist: -3%

How did Cc1ccc(-c2cccc(-c3cc(=O)oc4ccc(C(C)(C)C)cc34)c2)cc1 do in these assays?
D2 potentiator: -2; ClpP mod: -14%; Sfp inh: -15%; Menin MLL FP FL: 5.1; gsp antagonist: 7%

How did Cn1cc(Br)cc2nc(C(F)(F)F)nc1-2 do in these assays?
TRPV1 potentiator: -4; D2 potentiator: -13; ClpP mod: 1.0%; Sfp inh: 8%; Menin MLL FP FL: 1.0; gsp agonist: -16%; gsp antagonist: 10%

How did CCn1c(CNc2ccc(F)cc2)nnc1SCC(=O)Nc1ccccc1OC do in these assays?
TRPV1 potentiator: inconclusive; D2 potentiator: -3; ClpP mod: -0.6%; Sfp inh: -3%; Menin MLL FP FL: 0.2; gsp agonist: 22%; gsp antagonist: 5%

How did O=C(NCc1ccccc1F)C1CCCN1C(=O)Nc1ccc(F)cc1 (stereo unspecified) do in these assays?
TRPV1 potentiator: -3; D2 potentiator: -2; ClpP mod: -1.7%; Sfp inh: 16%; Menin MLL FP FL: 0.6; gsp agonist: -12%; gsp antagonist: 0%

How did O=C(CN1CCN(S(=O)(=O)c2ccc(C(F)(F)F)cc2)CC1)N1CCNC1=O do in these assays?
TRPV1 potentiator: -3; D2 potentiator: -9; ClpP mod: -1.6%; gsp agonist: 22%; gsp antagonist: 5%

What do the screens show for `COc1ccc(S(=O)(=O)N(C)C[C@@H]2Oc3cc(Br)ccc3S(=O)(=O)N([C@H](C)CO)C[C@@H]2C)cc1`?
D2 potentiator: 3; ClpP mod: -1.0%; gsp agonist: inconclusive

What do the screens show for `O=C(c1ccc(CS(=O)(=O)c2cccc(C(F)(F)F)c2)o1)N1CCN(c2ccccn2)CC1`?
TRPV1 potentiator: 3; D2 potentiator: 0; ClpP mod: -0.7%; Sfp inh: 15%; Menin MLL FP FL: 1.0; gsp agonist: -38%[inhibitor]; gsp antagonist: -12%

How did Cc1ccc(-c2nc(N/N=C/c3ccncc3)c3ccccc3n2)cc1 do in these assays?
TRPV1 potentiator: -13; D2 potentiator: -7; ClpP mod: -6.6%; Sfp inh: 10%; Menin MLL FP FL: 5.8; gsp agonist: -4%; gsp antagonist: -8%

Results for COc1ccc(NC(=S)NCCc2c[nH]c3ccc(OC)cc23)c(OC)c1 ?
TRPV1 potentiator: -11; D2 potentiator: 9; ClpP mod: -0.5%; Sfp inh: -12%; Menin MLL FP FL: 1.1; gsp agonist: -20%; gsp antagonist: -14%

What do the screens show for `Cc1ccc(CCNC(=O)CCS(=O)(=O)c2ccc3c(c2)oc(=O)n3C)cc1`?
TRPV1 potentiator: 7; D2 potentiator: -4; ClpP mod: 2.4%&0.4%; Sfp inh: 8%; gsp agonist: 0%; gsp antagonist: -16%

What do the screens show for `COc1cc2ccccc2cc1C(=O)NCc1ccncc1`?
TRPV1 potentiator: -20; D2 potentiator: -7; ClpP mod: 4.1%; Sfp inh: 20%; gsp agonist: -7%; gsp antagonist: -16%

Results for CCO[C@@H]1OC(C(=O)NCc2ccccc2)=C[C@H](c2cn(C(C)=O)c3ccccc23)[C@H]1CCCO ?
TRPV1 potentiator: 19; D2 potentiator: -8; ClpP mod: -2.2%; Sfp inh: 0%; Menin MLL FP FL: 9.2; gsp agonist: 8%; gsp antagonist: -22%

2 consecutive entries from above, quoted:
What do the screens show for `O=c1cc(-c2ccccc2)[nH]n1-c1nc2ccccc2s1`?
TRPV1 potentiator: -22; D2 potentiator: -5; ClpP mod: -1.9%; Sfp inh: 7%; Menin MLL FP FL: 5.7; gsp agonist: -31%[inhibitor]; gsp antagonist: inconclusive

Results for Cc1nn(C)c(C(=O)NC(=S)Nc2ccccc2Br)c1Cl ?
TRPV1 potentiator: 11; D2 potentiator: -8; ClpP mod: 0.6%; Sfp inh: inconclusive; gsp agonist: 13%; gsp antagonist: -15%

Carrying on.
What do the screens show for `CCOc1ccccc1N1CCN(C(=O)c2ccc(S(=O)(=O)Nc3ccccc3)cc2)CC1`?
TRPV1 potentiator: 2; D2 potentiator: 9; ClpP mod: 2.2%; gsp agonist: -7%; gsp antagonist: inconclusive

Results for COc1ccc(C2CCCCCN2Cc2nc3ccccc3c(=O)n2CC(N)=O)cc1 (stereo unspecified) ?
TRPV1 potentiator: -2; D2 potentiator: -4; Sfp inh: 19%; Menin MLL FP FL: 5.4; gsp agonist: -15%; gsp antagonist: inconclusive

How did CCOc1ccccc1NC(=O)c1cccc(NC(=O)C2CCCC2)c1 do in these assays?
TRPV1 potentiator: 3; D2 potentiator: -3; Sfp inh: 5%; Menin MLL FP FL: -0.5; gsp agonist: -40%[inhibitor]; gsp antagonist: -15%

How did O=C(/C=C/NNC(=O)c1ccccc1)c1ccc(Br)cc1 do in these assays?
TRPV1 potentiator: -29; D2 potentiator: -37; ClpP mod: 0.1%; Sfp inh: 5%; Menin MLL FP FL: 18; gsp agonist: 4%; gsp antagonist: 12%

What do the screens show for `CCCCN1C(N)=NC[C@@H]1CCCCN`?
D2 potentiator: -7; ClpP mod: -2.3%; gsp agonist: -30%; gsp antagonist: 4%

What do the screens show for `Cn1c(=O)c2c(SCc3ccccn3)nc(C3CC3)nc2n(C)c1=O`?
TRPV1 potentiator: 5; D2 potentiator: -13; ClpP mod: 1.3%; Sfp inh: -7%; Menin MLL FP FL: -4.0; gsp agonist: 4%; gsp antagonist: 0%

How did O=C(c1ccc(F)cc1)C1CCN(C(=O)c2c(F)cccc2F)CC1 do in these assays?
TRPV1 potentiator: -2; D2 potentiator: -25; Sfp inh: 6%; Menin MLL FP FL: -0.1; gsp agonist: -34%[inhibitor]; gsp antagonist: 0%

Results for Cc1ccc(-n2ncc3c(=O)[nH]c(SCC(=O)N4CC(=O)Nc5ccccc54)nc32)cc1 ?
D2 potentiator: -8; ClpP mod: 1.4%; gsp agonist: -5%[15.4 µM]; gsp antagonist: -12%

How did Fc1ccc(-n2cc(-c3ccccc3)c3c(NN4CCOCC4)ncnc32)cc1 do in these assays?
TRPV1 potentiator: -6; D2 potentiator: -28; ClpP mod: -4.2%; Sfp inh: -15%; Menin MLL FP FL: 7.2; gsp agonist: -2%; gsp antagonist: -30%

Results for C[C@H](CO)N1C[C@H](C)[C@@H](CN(C)S(=O)(=O)c2cccs2)Oc2ccc(NC(=O)C3CC3)cc2C1=O ?
D2 potentiator: 5; ClpP mod: -6.0%; gsp antagonist: 7%

Results for COc1ccc2cc3cc(C(=O)NCc4cccs4)oc3nc2c1 ?
TRPV1 potentiator: -4; D2 potentiator: 1; ClpP mod: -2.3%; Sfp inh: -23%; Menin MLL FP FL: 0.1; gsp agonist: -21%; gsp antagonist: -12%

How did Cc1nc(/C(N)=N/OC(=O)c2ccccc2Cl)c(C(F)(F)F)o1 do in these assays?
TRPV1 potentiator: 16; D2 potentiator: 7; ClpP mod: 0.6%; Sfp inh: 4%; Menin MLL FP FL: 4.1; gsp agonist: -5%; gsp antagonist: -18%

Results for CC1(c2cccc(N)c2)OCCO1 ?
D2 potentiator: -11; ClpP mod: -2.6%; gsp agonist: 7%

Results for CN(C)c1ccc(-c2ccccc2)nn1 ?
TRPV1 potentiator: 6; D2 potentiator: -12; ClpP mod: -15%; Sfp inh: 21%; Menin MLL FP FL: -1.6; gsp agonist: -26%; gsp antagonist: 7%

What do the screens show for `O=c1[nH]c(=O)n(Cc2ccccc2)c2nc(-c3cccs3)n(CCO)c12`?
TRPV1 potentiator: 23; D2 potentiator: -1; Sfp inh: 0%; Menin MLL FP FL: 3.7; gsp agonist: -16%[15.4 µM]; gsp antagonist: 12%

What do the screens show for `O=c1[nH]c(O)c(/C=C2\C=Nc3ccccc32)[nH]1`?
TRPV1 potentiator: 3; D2 potentiator: 4; ClpP mod: -2.0%; Sfp inh: -12%; Menin MLL FP FL: -0.7; gsp agonist: inconclusive; gsp antagonist: -6%
